Rango dissoc inh – inhibition of RanGTP-driven Rango-importin beta dissociation | O95149+P62826 | Biochemical FRET Rango-importin beta, RanGTP-induced dissociation | Potency, µM (titrated, usually from 46.1 µM), inactives show at the highest dose activity change, negative = inhibition | 340,000 tested, 0.071% active | AID 540253; active means falling FRET ratio curve, often poorly fitted, with flat reads before Ran was added; inconclusive means other falling curves, or compound fluorescence or quenching; inactive means flat or rising ratio curve;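 further: potency means the concentration at half of the fitted maximal effect; % of control where 0% means no effect; nearly all actives have a fitted effect of over 45% in size; -100% = wells without RanGTP and RCC1; the record marks most hits as doubtful in a second field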
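Rango (0.1 uM)–importin beta (0.25 uM) complex; RanGTP-RCC1 trigger; 45 min RT; CFP/YFP FRET read.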
miR-21 FLuc – raises the signal of a miR-21 reporter | HeLa miR-21 FLuc reporter, luciferase, 48 h | Potency, µM (titrated, usually from 38.3 µM), for the others: at the highest dose reporter change, positive = more light | 340,000 tested, under 10 active; active = well fitted rising curve with a large enough effect; inconclusive = small, poorly fitted or top-dose-only effect; inactive = no such curve, though single readings can be large or run the other way;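 further: % of control where 0% means no effect; miR-21 action dims this reporter so a rising signal means less miR-21 action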
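Compounds were titrated across several concentrations (up to approximately 40 uM) and incubated 48 hours with HeLa miR-21-FLuc reporter cells (miR-21 target sequence downstream of FLuc, endogenous miR-21). Readout was firefly luciferase luminescence after lytic detection reagent.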
GLA inh pH 4.5 – inhibitors of human alpha-galactosidase A at pH 4.5; 230,000 tested, under 10 active; purified enzyme, 4-MU-alpha-Gal fluorescence, pH 4.5; P06280; activity change, negative = inhibition, % at 105 µM; inconclusive = small, poorly fitted or top-dose-only inhibition, or a rising curve; inactive = flat fitted curve, though single readings scatter; no compound was filed as active;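 further: 0% = full activity with enzyme and -100% = basal without enzyme; dose as in the result columns while the protocol names 77 µM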
Target sequence (P06280 whole entry, looked up): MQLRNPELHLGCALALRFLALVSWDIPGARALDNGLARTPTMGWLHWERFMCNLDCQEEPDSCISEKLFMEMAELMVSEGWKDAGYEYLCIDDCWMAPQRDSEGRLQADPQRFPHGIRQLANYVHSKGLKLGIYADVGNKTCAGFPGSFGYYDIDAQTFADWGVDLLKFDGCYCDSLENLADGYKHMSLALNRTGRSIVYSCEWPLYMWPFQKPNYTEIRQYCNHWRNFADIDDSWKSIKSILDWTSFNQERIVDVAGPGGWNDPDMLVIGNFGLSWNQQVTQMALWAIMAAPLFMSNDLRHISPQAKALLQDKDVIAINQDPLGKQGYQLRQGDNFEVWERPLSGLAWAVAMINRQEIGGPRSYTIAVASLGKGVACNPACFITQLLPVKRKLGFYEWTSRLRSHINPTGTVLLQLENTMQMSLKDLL
Rango-impB inh – inhibitors of Rango-importin beta complex formation | Q14974 | Rango CFP/YFP FRET sensor + importin beta, 45 min | Potency, µM (top dose mostly 92.2 µM), for the others: top-dose inhibition of complex formation | 340,000 tested, 0.031% active; active = rising FRET ratio curve, often small or poorly fitted; inconclusive = mostly compound fluorescence or quenching in the first reads; inactive = flat curves in all reads;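 further: potency means the concentration at half of the fitted maximal effect; 0% = DMSO wells and 100% = buffer wells lacking importin beta; nearly all actives have a fitted effect of over 15% in size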
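FRET biosensor (snurportin 1 IBB flanked by EYFP and cerulean), 50 nM, with compound 5 min, then 0.125 microM importin beta in PBS, 1 mM DTT, 0.02% Tween-20, 0.1% BSA. CFP/YFP ratio read after 45 min at room temperature; pre-read flags interference.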
* = called active by the depositor; u = inconclusive; x = no result given; & = joins results of further samples; [ ] = remark or other dose.

Rango-impB inh	Molecule	Rango dissoc inh	miR-21 FLuc	GLA inh pH 4.5
-0.9%	COc1cc(-c2nnc(SCC(=O)N(Cc3ccccc3)C(C)(C)C)o2)cc(OC)c1OC	2.3%	u	0.8
1.7%	COC(=O)c1cc(-c2cccs2)nc2ccccc12	-12.9%	-1.0%	x
-0.1%	CCOc1ccccc1NC(=O)CN1CCC(C(=O)c2ccc(OC)cc2)CC1	15.3%	6.1%	x
-1.1%	Cc1ccnc(NC(=O)C2CCN(S(=O)(=O)c3cccc(C(F)(F)F)c3)CC2)c1	6.9%	-2.6%	x
-0.7%	Cc1ccc(NC(=O)COC(=O)c2ccc(OCc3c(C)noc3C)cc2)cc1S(=O)(=O)N1CCOCC1	-0.5%	-4.0%	-2.1
5.9%	CCOc1cc(NC(=S)NCc2ccco2)c(OCC)cc1NC(=O)CC	-10.6%	-2.2%	8.3
3.2%	CCCC(=O)Nc1ccc(C(=O)NCCCn2ccnc2)cc1	11.7%	1.2%	-2.2
-0.2%	Cc1cccc(-n2c(SCC(N)=O)nc3c(c2=O)C2(CCCC2)Cc2ccccc2-3)c1	5.5%	11.0%	-5.4
0.0%	Clc1cccc(OCCN2CCOCC2)c1	-12.4%	-9.0%	0.2
1.0%	CC(C)C(=O)Nc1nnc(CSCc2ccccc2F)s1	1.8%	-19.5%	-2.2
3.4%	c1ccc2c(SCc3cn4ccccc4n3)nncc2c1	-2.2%	-63.8%	1.8
1.7%	COc1ccc(C(=O)Nc2c(O)ccc3ccccc23)cc1	-0.2%	x	x
-0.8%	Cc1c(CNCCCc2ccccc2)c(C(=O)O)c(C)n1Cc1ccccc1	15.0%	-1.3%	0.1[21.1 µM]
x	CC1=C(C#N)c2nc(N)c(C#N)c(C)c2/C1=C\c1ccc(C)cc1	x	-7.5%	-5.0
0.0%	C[C@@H]1CCC[C@@]2(O[C@@H](CCO)C[C@H](O)[C@H]2O)O1	-12.7%	x	x
-0.5%	O=C(CS(=O)(=O)c1c[nH]c2ccccc12)Nc1ccc2c(c1)OCCO2	-2.3%	-26.2%	-2.2
-3.1%	COc1ccccc1CCNC(=O)CN1C(=O)NC2(CCCC2)C1=O	-23.7%	x	x
0.3%	C=CCN(C(=O)CCC(=O)Nc1cc(C)on1)C(C(=O)NC1CCCC1)c1ccc(OC)c(OC)c1 (configuration not stated)	4.7%	-2.1%	x
u	O=C(CN1CCCc2ccccc21)N/N=C/c1c(O)ccc2ccccc12	u	-0.2%	-12.5
0.5%	O=C(c1cc2nc(-c3ccc(F)cc3)cc(C(F)(F)F)n2n1)N1CCOCC1	0.9%	-10.8%	3.0
2.1%	O=C1CS/C(=C/C(=O)c2cccc(Cl)c2)N1	0.8%	-20.3%	-20.6
-0.1%	CCOc1ccc(C(=O)CCC(=O)N2CCN(S(=O)(=O)c3cccc(F)c3)CC2)cc1	17.5%	x	x
0.7%	Cc1cccnc1NC(=O)CNC(=O)C12CC3CC(CC(C3)C1)C2	21.2%	x	x
3.2%	CCn1nc(C(=O)NNS(=O)(=O)c2ccc(C)cc2)c2ccccc2c1=O	-1.2%	x	x
-2.4%	COc1ccc(CC(=O)Nc2cccc(/C(C)=N/NC(=O)C3(C)CC3(Br)Br)c2)cc1 (configuration not stated)	2.4%	7.6%	x
-0.6%	CC[C@@H]1C/C=C\Cc2ccccc2[C@H](C(=O)C[C@H](O)CC(C)=O)OC1=O	16.8%	x	x
5.7%	COc1ccc(CCNC(=O)c2cnn3cccnc23)cc1OC	1.4%	-8.1%	-2.9
-0.5%	COc1ccc(-c2cc3c(=O)n(CC(=O)Nc4cccc(Cl)c4)nc(C)n3n2)cc1	21.4%	0.5%	x
1.3%	COC(=O)c1cccc(NC(=O)CSc2nc3cccnc3n2C)c1	-4.6%	23.1%	-1.9
0.1%	CC(C)CC1(C(=O)O)NC(c2ccccc2O)C2C(=O)N(C(C)C)C(=O)C21 (configuration not stated)	25.4%	1.2%	-0.9

Reprinted from above, 7 compounds:
Rango-impB inh	Molecule	Rango dissoc inh	miR-21 FLuc	GLA inh pH 4.5
3.2%	CCn1nc(C(=O)NNS(=O)(=O)c2ccc(C)cc2)c2ccccc2c1=O	-1.2%	x	x
-2.4%	COc1ccc(CC(=O)Nc2cccc(/C(C)=N/NC(=O)C3(C)CC3(Br)Br)c2)cc1 (configuration not stated)	2.4%	7.6%	x
-0.6%	CC[C@@H]1C/C=C\Cc2ccccc2[C@H](C(=O)C[C@H](O)CC(C)=O)OC1=O	16.8%	x	x
5.7%	COc1ccc(CCNC(=O)c2cnn3cccnc23)cc1OC	1.4%	-8.1%	-2.9
-0.5%	COc1ccc(-c2cc3c(=O)n(CC(=O)Nc4cccc(Cl)c4)nc(C)n3n2)cc1	21.4%	0.5%	x
1.3%	COC(=O)c1cccc(NC(=O)CSc2nc3cccnc3n2C)c1	-4.6%	23.1%	-1.9
0.1%	CC(C)CC1(C(=O)O)NC(c2ccccc2O)C2C(=O)N(C(C)C)C(=O)C21 (configuration not stated)	25.4%	1.2%	-0.9

Next entries
Rango-impB inh	Molecule	Rango dissoc inh	miR-21 FLuc	GLA inh pH 4.5
-2.8%	CCOC(=O)c1ccc(N(CC(=O)NC2CCCC2)C(=O)CNC(=O)c2ccco2)cc1	0.7%	-8.3%	-0.2
-0.7%	COc1ccc(CCNC(=O)c2ccccc2NC(=O)C2=C(C)OCCS2)c(OC)c1	-0.4%	14.5%	x
-3.5%	CC(c1ccon1)N(C)Cc1cn(Cc2ccccc2)nc1-c1ccc2c(c1)OCO2 (configuration not stated)	2.6%	3.0%	-15.8
-0.1%	CC(C)N(CCCNC(=O)C1CCN(C(=O)c2cc3sccc3n2C)CC1)Cc1ccccc1	0.5%	3.1%	x
2.1%	COc1ccc(C(=O)Nc2ccc(S(=O)(=O)Nc3cc(C)nc(C)n3)cc2)cc1OC	-0.6%	-0.7%	-17.4
5.2%	Cc1sc2ncnc(N3CCN(S(=O)(=O)c4ccccc4)CC3)c2c1C	15.4%	x	x
-1.8%	O=C(N/N=C/c1cccc([N+](=O)[O-])c1)c1ccncc1	-6.9%	-3.2%	-8.0
-5.8%	O=C(Nc1cccc([N+](=O)[O-])c1)c1cc2ccccc2cc1O	0.0%	12.8%	-5.7
-0.8%	OCC1(Cc2ccc(Cl)cc2)CCN(CC2CC=CCC2)CC1 (configuration not stated)	-9.6%	-7.9%	-8.4
u	Cc1cc(Cl)ccc1N1C(=O)CC(NNC(=O)c2cccnc2)C1=O (configuration not stated)	17.7%	-3.3%	-4.6
2.7%	COc1cccc(C2=NOC(C(=O)N3CCN(c4ccccc4)CC3)C2)c1OC (configuration not stated)	10.6%	-15.4%	-5.2
-0.1%	CC(C)OCCCNC1=C(Cl)C(=O)c2ccccc2C1=O	-9.3%	-20.7%	-6.2
-3.2%	CC(NS(=O)(=O)CCNC(=O)c1ccccc1)c1ccccc1 (configuration not stated)	19.2%	x	x
2.0%	CCc1ccc(N2CC(C(=O)Nc3ccc(S(=O)(=O)Nc4ncccn4)cc3)CC2=O)cc1 (configuration not stated)	8.6%	5.0%	x
-0.4%	CCN(C[C@H]1N[C@@](CC)(C(=O)OC)[C@H]2C(=O)N(Cc3ccccc3)C(=O)[C@@H]12)S(=O)(=O)c1ccc(C(C)(C)C)cc1	-11.8%	x	x
-1.4%	Cc1ccc(C2C(C#N)=C(N)Oc3n[nH]c(-c4cccnc4)c32)o1 (configuration not stated)	17.0%	1.3%	2.2
0.0%	c1ccc(OCc2cc(-c3ccccc3)no2)cc1	-7.5%	-52.8%	1.9
3.9%	COc1ccccc1N1CCN(S(=O)(=O)c2cn(C)cn2)CC1	0.3%	0.1%	x
1.8%	CCCN1CCN(C(=S)NCc2ccc(Cl)cc2)CC1	2.5%	-8.6%	6.6
-1.1%	O=C1C(Cc2cccc([N+](=O)[O-])c2)SC(=Nc2ccccc2)N1c1ccccc1 (configuration not stated)	-5.4%	-0.9%	-1.3
-2.2%	O=C(NCc1ccccn1)C(F)(F)C(F)(F)C(=O)NCc1ccccn1	-19.0%	-2.4%	0.3
u	Cc1cc(C(=O)NC2CCCc3c2cnn3-c2cccc(C)c2C)c(C)o1 (configuration not stated)	-16.7%	18.0%	x
0.3%	CC(C)CCNC1c2ccccc2C(=O)N1Cc1ccccc1 (configuration not stated)	8.8%	2.5%	x
2.6%	O=C(Nc1cccc(S(=O)(=O)N2CCOCC2)c1)c1ccc(N2CCCC2=O)cc1	0.0%	x	x
0.2%	Cc1cc(S(=O)(=O)Nc2ccc3cn[nH]c3c2)c(C)cc1Cl	0.0%	17.2%	x
0.2%	CC1(CCC(=O)N2CCCC(N3CCN(c4ccc(F)cc4)CC3)C2)CC1 (configuration not stated)	0.9%	7.1%	x
-0.1%	Cc1cccc(C(=O)NCC(=O)OCC(=O)c2ccc(C)s2)c1	-8.0%	x	x
1.9%	O=C(Nc1cc(Cl)cc(Cl)c1)C(c1ccccc1)N1CCCCC1 (configuration not stated)	u	-4.0%	0.3
0.4%	S=C(Cc1ccccc1)N1CCOCC1	-14.4%	x	x
-0.5%	COC(=O)c1c(NC(=O)C2CC(C)=C(C)CC2C(=O)O)sc2c1CCCCC2 (configuration not stated)	0.4%	3.9%	x

Next section
Rango-impB inh	Molecule	Rango dissoc inh	miR-21 FLuc	GLA inh pH 4.5
-1.9%	CCOc1ccc(-c2nc(-c3ccncc3)no2)cc1OCC	-4.4%	-11.7%	0.5
1.9%	Cc1cc(C(F)(F)F)nc(SCC(=O)Nc2nccs2)n1	13.9%	1.0%	x
4.6%	O=C(NCc1cccnc1)c1ccc([N+](=O)[O-])cc1	-7.2%	3.4%	1.8
2.4%	CNC(=O)Nc1ccccc1F	1.7%	-1.1%	-0.5
3.5%	Cc1ccc2c(c1)C(c1ccccc1)C(=O)O2 (configuration not stated)	6.0%	2.3%	-2.5
-1.8%	CCC(CC)C1C(C#N)=C(N)Oc2n[nH]c(-c3ccccc3)c21 (configuration not stated)	30.6%	26.7%	-10.9
6.2%	CC(=O)NC1=NN(C(C)=O)C(C)(c2ccc(C)o2)S1 (configuration not stated)	6.0%	-10.5%	3.7
-1.3%	COc1ccccc1NC(=S)N1CCC(NC(=O)c2ccco2)CC1	15.6%	-0.2%	7.9
-4.6%	COc1ccc(CSCC(=O)N/N=C/c2ccc(OCC(=O)NCc3ccco3)cc2)cc1	7.5%	18.4%	-3.2
0.2%	O=C(CN1C(=O)COc2ccc(S(=O)(=O)N3CCCC3)cc21)Nc1cccc(F)c1	-0.3%	0.3%	x
-2.8%	CC(O)Cc1cn([C@@H](CCCCN)C(=O)N2CCNCC2)nn1 (some centres not stated)	-13.8%	0.3%	9.8
-0.6%	CCc1ccc(N2CC(C)Cn3c2nc2c3c(=O)n(CCN3CCOCC3)c(=O)n2C)cc1 (configuration not stated)	-8.0%	-4.3%	0.6
1.0%	CCC1(C)N=c2c(c(=O)n(C)c(=O)n2C)=NO1 (configuration not stated)	-13.5%	-0.6%	4.9
u	N#Cc1c2c(c(Nc3ccc(F)cc3)n3c1nc1ccccc13)CCCC2	u	x	x
-1.1%	CN(NC(=O)c1ccccc1)c1ncc(C(F)(F)F)cc1Cl	0.3%	1.9%	-9.7
-1.6%	CCN(CC(=O)Nc1c(F)cccc1F)C(=O)c1cc(S(=O)(=O)N(C)C)ccc1N1CCCC1	-10.9%	x	x
1.9%	COc1ccc(-c2[nH]ncc2CN(C)Cc2cccnc2)c(OC)c1	10.1%	-1.2%	0.1
0.2%	O=C1OCCN1c1c(-c2ccccc2)c(N2CCOCC2)nc2ccccc12	-2.8%	x	x
-2.2%	CC(C)(C)C(=O)Nc1nnc(SCC(=O)Nc2nccs2)s1	5.6%	-3.4%	x
-1.6%	Cc1cc(NC(=O)c2ccc3c(c2)C(=O)N(c2cccc(C)c2C)C3=O)no1	6.2%	0.0%	x
0.6%	O=C(Cc1ccc(Cl)cc1)NNS(=O)(=O)c1ccc([N+](=O)[O-])cc1	1.1%	-10.4%	-8.4
0.4%	COc1ccc(NC(=O)c2cnc(SC)n2-c2ccc(F)cc2)c(OC)c1	1.0%	-14.0%	x
-1.4%	C[C@]12CCC(=O)C=C1CC[C@@H]1[C@@H]2C(=O)C[C@@]2(C)[C@H]1CC[C@]2(O)C(=O)CO	-15.4%	-2.6%	1.2&-2.1
-3.5%	O=C(Cn1nc(C(F)F)cc1C(F)F)N/N=C/c1ccc2c(c1)OCO2	-16.5%	-6.1%	6.5

This is a subset; the hit share may differ from the screen's.
